Screening data: PubChem BioAssay, several laboratories
HNF4A DNA FP – change in binding of human HNF4 alpha to DNA. HNF4a-FITC DNA binding, fluorescence polarization, 1 h. activity change, % at 10 µM. 0.3% of 360,000 active; in the data active = activity change above about 30%, passing the limit was not always enough;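 note: controls were the assay level and a saturating level of protein; the project sought stronger binding though the title names inhibitors; some compounds called inactive have numbers as strong as hits; positive values seem to mean higher polarization but the record does not say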
Target sequence (P41235 whole entry, looked up): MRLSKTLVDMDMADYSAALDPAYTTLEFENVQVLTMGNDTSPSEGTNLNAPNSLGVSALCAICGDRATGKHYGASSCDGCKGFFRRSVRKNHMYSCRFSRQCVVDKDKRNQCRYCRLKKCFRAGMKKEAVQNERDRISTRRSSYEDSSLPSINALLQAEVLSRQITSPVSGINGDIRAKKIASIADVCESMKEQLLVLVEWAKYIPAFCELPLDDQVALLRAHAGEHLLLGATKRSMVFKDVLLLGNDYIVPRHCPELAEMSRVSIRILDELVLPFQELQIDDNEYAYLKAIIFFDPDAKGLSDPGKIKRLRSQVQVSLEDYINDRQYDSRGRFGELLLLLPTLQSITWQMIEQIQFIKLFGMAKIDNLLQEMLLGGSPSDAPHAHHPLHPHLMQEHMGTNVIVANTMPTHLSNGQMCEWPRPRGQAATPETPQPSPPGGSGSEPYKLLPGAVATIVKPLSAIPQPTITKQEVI
Ecoli rRNA inh – inhibits bacterial ribosomal RNA function over humanized ribosomes | E. coli WT GFP vs humanized-ribosome RFP mutants, fluorescence, 24 h; stronger effect = lower value; DMSO median 0, no signal -100 | GFP signal change (wild-type ribosome), % (no concentration beside the values) | 1.6% of 350,000 active;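 active = significant combined selectivity score with lowered wild-type GFP, culture density cut under 30%, mutant RFP and density less affected; inactive = any of these conditions unmet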; note: one replicate is shown; some compounds called inactive have numbers as strong as hits
FGF22 binding – binders of recombinant human FGF22 by thermal shift. Q9HCT0. SYPRO orange fluorescence; percent of sucrose octasulfate shift, DMSO zero. calls only at 9.99 µM. 1.5% of 340,000 active;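 active = melting point raised past a set limit in the mean and every replicate; three in four hits are not shown here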
Target sequence (Q9HCT0 whole entry, looked up): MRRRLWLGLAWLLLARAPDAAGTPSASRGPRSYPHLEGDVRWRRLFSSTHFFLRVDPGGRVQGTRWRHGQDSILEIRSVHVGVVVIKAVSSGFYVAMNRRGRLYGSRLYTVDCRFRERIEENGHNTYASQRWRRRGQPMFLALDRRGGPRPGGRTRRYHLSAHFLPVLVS
Ecoli rRNA inh OD600 – recorded beside Ecoli rRNA inh, whose call it bears; OD600 change, %; measured here: OD600 growth;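 optical density of the mix in the first replicate; 0 = DMSO median and -100 = no signal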
Ecoli rRNA inh RFP – also measured in Ecoli rRNA inh; calls as there; RFP signal change, %; measured here: RFP humanized mutant strains;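 first replicate; 0 = DMSO median and -100 = no signal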
Numbers without * were called inactive; i = inactive; x = no result given. Some of the compounds tested (hit frequency here may not be typical).

Below each SMILES: HNF4A DNA FP	Ecoli rRNA inh	Ecoli rRNA inh OD600	Ecoli rRNA inh RFP	FGF22 binding
(1) CCOC(=O)[C@]12CCCC=C1N(Cc1ccc(Cl)cc1Cl)C(=O)[C@H](CC(=O)NCC1CCCCC1)C2
 : 6.9	x	x	x	i
(2) O=C(NCCN1CCNC1=O)c1ccc2sc([C@@H]3O[C@H](CO)[C@H](O)[C@H](O)[C@H]3O)nc2c1
 : -1.1	x	x	x	i
(3) COc1cccc(CN2CCC2(C)C(=O)Nc2cccc(Oc3ccccc3)c2)c1F (stereo not drawn)
 : 1.5	x	x	x	i
(4) Cc1cc(NC(=O)c2cc3cc([N+](=O)[O-])ccc3s2)no1
 : 1.8	x	x	x	i
(5) COC(=O)c1ccc2nc(-c3ccc(C)cc3)c(Cc3ccccc3OC)n2c1
 : 6.2	x	x	x	i
(6) COCC(=O)N(C)[C@H]1C[C@H]2c3[nH]c4ccccc4c3CCN2C(=O)[C@H]1[C@H](C)O
 : -22	x	x	x	i
(7) CC1(C(=O)NS(=O)(=O)c2ccccc2Cl)CCN1C(=O)CC1CCCCC1 (stereo not drawn)
 : 3.3	x	x	x	i
(8) CN(C)c1ccc(NC(=O)Nc2nc(C(N)C3CCCCC3)cs2)cc1 (stereo not drawn)
 : 3.0	x	x	x	i
(9) N#Cc1cccc(C(=O)C(=O)N2CCN(c3ccccc3)CC2)c1
 : 2.2	x	x	x	i
(10) COc1ccc(Cn2cc(CN3CCc4onc(-c5ccc(Br)cc5)c4C3=O)nn2)cc1
 : -5.2	x	x	x	i
(11) CCOC(=O)[C@]12CCCC=C1N(Cc1ccc(Cl)cc1Cl)C(=O)[C@H](CC(=O)N1CCN(C(=O)c3ccco3)CC1)C2
 : -4.1	x	x	x	i
(12) CN(N=Nc1ccccc1C(=O)O)C1CCCCC1
 : -0.8	x	x	x	i
(13) CCCCCCCCN1C(=O)[C@H](CC(=O)N2CCCCC2)C[C@@]2(C(=O)OC)CC(C)(C)CC=C12
 : 3.9	x	x	x	i
(14) Brc1ccc2nc(-c3ccco3)c(Cc3ccccc3)n2c1
 : 12	x	x	x	i
(15) COc1ncccc1-c1ccc2nncn2c1
 : -0.1	x	x	x	i
(16) CC(=O)N1CCN(c2ccc(NC(=O)c3cccc(F)c3)cc2)CC1
 : 1.8	x	x	x	i
(17) COc1ccc(CC(N)c2csc(Nc3cc(NCCCO)ncn3)n2)cc1 (stereo not drawn)
 : 6.2	x	x	x	i
(18) COc1cc(Cl)ccc1OC1(C)CCN(Cc2ccc3ccccc3c2)C1 (stereo not drawn)
 : 4.5	x	x	x	i
(19) Cn1c(=O)c2cc(NC(=O)CCc3cccc(Cl)c3)ccc2n1Cc1cccc(C(F)(F)F)c1
 : 1.5	x	x	x	i
(20) Cc1ccc(Cc2c(-c3ccc(C#N)cc3)nc3ccc(Cl)cn23)cc1
 : 11	x	x	x	i
(21) COc1ccc([C@H]2N[C@]3(CCCN(CC4CCCCC4)C3=O)[C@H]3C(=O)N(Cc4ccccc4)C(=O)[C@@H]23)cc1
 : 3.5	x	x	x	i
(22) O=C(CSc1nnc2ccc(-c3ccccn3)nn12)Nc1cccc(F)c1
 : 2.7	x	x	x	i
(23) CC(C)c1cc(C(=O)N(C)C2CCCN(Cc3ccccc3F)C2)n(C)n1 (stereo not drawn)
 : 0.6	x	x	x	i
(24) CCNC(=O)C1(C)CCCN(Cc2ccc(-c3ccccn3)cc2)C1 (stereo not drawn)
 : 3.7	x	x	x	i
(25) COCCNC(=O)C1CCCN(C(=O)c2nc(C)oc2C)CC1 (stereo not drawn)
 : -0.4	x	x	x	i
(26) Cc1ccc(S(=O)(=O)N2CCC(=O)N([C@H](COCc3cccc(Cl)c3)C(C)C)CC2)cc1
 : 0.2	x	x	x	i
(27) CC(=O)O[C@@H]1C[C@@]2(C)[C@@H](CC[C@H]2[C@@H](C)/C=C\CC(C)C)C2=C[C@@H](O)[C@@]3(O)C[C@@H](O)[C@H](O)C[C@]3(CO)[C@]21O
 : 5.1	x	x	x	i
(28) COc1ccc(-c2ccc(C(=O)NCc3ccc(N4CCN(C)CC4)cc3)c3occc23)c(C)c1
 : -2.9	x	x	x	i
(29) CC(C)c1nc(CNC(=O)CC2C(=O)NCCN2Cc2ccccc2)cs1 (stereo not drawn)
 : 3.1	x	x	x	i
(30) CCOC(=O)N1CCN(C(=O)C[C@@H]2C[C@@]3(C(=O)OCC)CCC=C3N(Cc3ccc(Cl)cc3Cl)C2=O)CC1
 : -5.3	x	x	x	i

Of the compounds above, 2 have bromine:
Below each SMILES: HNF4A DNA FP	Ecoli rRNA inh	Ecoli rRNA inh OD600	Ecoli rRNA inh RFP	FGF22 binding
(10) COc1ccc(Cn2cc(CN3CCc4onc(-c5ccc(Br)cc5)c4C3=O)nn2)cc1
 : -5.2	x	x	x	i
(14) Brc1ccc2nc(-c3ccco3)c(Cc3ccccc3)n2c1
 : 12	x	x	x	i

Among those listed so far, these have a cyano group.
Below each SMILES: HNF4A DNA FP	Ecoli rRNA inh	Ecoli rRNA inh OD600	Ecoli rRNA inh RFP	FGF22 binding
(9) N#Cc1cccc(C(=O)C(=O)N2CCN(c3ccccc3)CC2)c1
 : 2.2	x	x	x	i
(20) Cc1ccc(Cc2c(-c3ccc(C#N)cc3)nc3ccc(Cl)cn23)cc1
 : 11	x	x	x	i

Single records, from the list above. Order of screens: HNF4A DNA FP, Ecoli rRNA inh, Ecoli rRNA inh OD600, Ecoli rRNA inh RFP, FGF22 binding
Record of `Cc1ccc(Cc2c(-c3ccc(C#N)cc3)nc3ccc(Cl)cn23)cc1` : 11, x, x, x, i
Record of `COc1ccc(Cn2cc(CN3CCc4onc(-c5ccc(Br)cc5)c4C3=O)nn2)cc1` : -5.2, x, x, x, i

The listing picks up; the 4 compounds before the break are reprinted first.
Below each SMILES: HNF4A DNA FP	Ecoli rRNA inh	Ecoli rRNA inh OD600	Ecoli rRNA inh RFP	FGF22 binding
(27) CC(=O)O[C@@H]1C[C@@]2(C)[C@@H](CC[C@H]2[C@@H](C)/C=C\CC(C)C)C2=C[C@@H](O)[C@@]3(O)C[C@@H](O)[C@H](O)C[C@]3(CO)[C@]21O
 : 5.1	x	x	x	i
(28) COc1ccc(-c2ccc(C(=O)NCc3ccc(N4CCN(C)CC4)cc3)c3occc23)c(C)c1
 : -2.9	x	x	x	i
(29) CC(C)c1nc(CNC(=O)CC2C(=O)NCCN2Cc2ccccc2)cs1 (stereo not drawn)
 : 3.1	x	x	x	i
(30) CCOC(=O)N1CCN(C(=O)C[C@@H]2C[C@@]3(C(=O)OCC)CCC=C3N(Cc3ccc(Cl)cc3Cl)C2=O)CC1
 : -5.3	x	x	x	i
(31) CNC(=O)c1cc(Oc2ccc(NC(=O)c3[nH]c(-c4ccccc4)c4c3C(=O)N(C)C4=O)cc2)ccn1
 : -0.8	x	x	x	i
(32) OC[C@@H]1CN(Cc2ccccc2)C[C@H](n2cnc3c(NC4CCCC4)ncnc32)O1
 : 0.2	x	x	x	i
(33) O=C(Nc1c2c(nn1-c1ccccc1)CS(=O)(=O)C2)C1CC1
 : -2.3	x	x	x	i
(34) O=c1ccn(C2CCCCC2)c(=O)[nH]1
 : -2.2	x	x	x	i
(35) CC1=C(C(=O)N2CCCCCC2)CC(CC(=O)NC(c2ccccc2)c2ccccc2)C(=O)N1CCC1=CCCCC1 (stereo not drawn)
 : -4.9	x	x	x	i
(36) COc1cc(Cl)ccc1OCc1cc(C(=O)N2CCN(C3CCCCC3)CC2)no1
 : 5.0	x	x	x	i
(37) NC(Cc1ccc(C(F)(F)F)cc1)c1csc(Nc2cc(Oc3ccccc3)ncn2)n1 (stereo not drawn)
 : 4.8	x	x	x	i
(38) CC(C)NC(=O)C1(C)CSCC(=O)N1C1CC1 (stereo not drawn)
 : 1.7	x	x	x	i
(39) COc1ccc(Cc2c(-c3ccc(F)cc3)nc3c(C)cc(Br)cn23)c(C)c1
 : 19	x	x	x	i
(40) CN(C)c1ccc(-c2[nH][nH]c(=O)c2NC(=O)c2ccc3ccccc3n2)cc1
 : -1.9	9	9	-2.8	x
(41) O=C(Nc1ccc(S(=O)(=O)NC2=NCCCCC2)cc1)c1cccc(OC(F)F)c1
 : 0.7	-7	-6	3.3	x
(42) COc1ccc(NC(C)=O)cc1NC(=O)c1c(C)noc1C
 : 1.8	6	9	1.6	x
(43) O=C(O)c1ccccc1-c1ccccc1C(=O)Nc1ccc2oc(=O)c3ccccc3c2c1
 : 0.2	-2	-37	1.1	x
(44) COc1ccc(OC)c(CCNC(=O)Cc2ccc(NC(=O)C3=C(C)OCCS3)cc2)c1
 : -1.9	0	-10	0.8	x
(45) CN(Cc1c(C(=O)N/N=C/c2ccccc2O)nnn1-c1nonc1N)C1CCCCC1
 : 1.0	4	4	2.0	x
(46) O=C1NCCCC1(c1ccccc1)c1ccccc1
 : -2.1	1	3	0.0	x
(47) CN1OC[C@@H]2CN(C(=O)C(C)(C)C)[C@H](c3ccc(-c4cc5ccccc5o4)cc3)C[C@@H]21
 : 1.7	1	-9	-0.2	x
(48) O=C1NC(=O)C2(CCCc3c([N+](=O)[O-])cccc32)N1 (stereo not drawn)
 : 2.7	5	12	0.9	x
(49) CC(C)CCn1nc(C(=O)OCC(=O)NC(C)c2ccccc2)c2ccccc2c1=O (stereo not drawn)
 : -1.0	0	9	2.6	x
(50) CCc1ccc(C(C#N)=CC=Cc2ccccc2)cc1
 : 0.5	-1	2	-3.4	x
(51) COc1ccc([C@H]2C[C@H](n3cc(-c4ccc(F)cc4)nn3)[C@@H](O)CN2Cc2cccs2)cc1
 : 1.0	2	4	-0.4	x
(52) O=C(CC[C@H]1O[C@@H](n2cnc3c(NC(=O)c4ccccc4)ncnc32)[C@H](O)[C@@H]1O)NCc1ccco1
 : -0.1	4	-1	-1.4	x
(53) Cn1ccn(CCCCCCn2ccn(C)c2=S)c1=S
 : 2.4	6	8	-1.6	x
(54) O=C(O)c1ccc(CNC(=O)c2ccc(S(=O)(=O)N3CCCC3)cc2)cc1
 : -3.7	10	11	0.2	x
(55) COc1ccccc1-c1cc2c(c3c1ccn3C)C1CCC2O1 (stereo not drawn)
 : 2.4	4	-13	-3.2	x
(56) CCOc1ccc(N2CC(C(=O)Nc3cccc(S(=O)(=O)N4CCOCC4)c3)CC2=O)cc1 (stereo not drawn)
 : -1.2	-10	-11	3.4	x
(57) CC(C(=O)N1CCCCC1)N(C)CC(=O)Nc1ccc(F)c(F)c1F (stereo not drawn)
 : 2.4	12	22	1.1	x
(58) COc1ccc(-c2c(C(=O)c3ccccc3)[nH]c(N)c2C(=O)c2ccc(Br)cc2)cc1OC
 : 3.1	-2	-17	-4.9	x
(59) OC(CNC1CCCCC1)CON=C1CCSc2c(Cl)cccc21 (stereo not drawn)
 : -0.2	-57	-80	-18	x
(60) CN(C)CCNC(=O)c1[nH]c(C(F)(F)F)nc1-c1ccccc1
 : 3.9	24	14	-0.6	x

The list goes on.
Below each SMILES: HNF4A DNA FP	Ecoli rRNA inh	Ecoli rRNA inh OD600	Ecoli rRNA inh RFP	FGF22 binding
(61) C=C1C(=O)[C@]23C[C@H]1CCC2[C@@]1(C)C(C[C@@H]3O)[C@](C)(C(=O)OC)CC[C@@H]1O (stereo partly drawn)
 : 2.9	12	2	4.1	x
(62) Cc1cnc2c(N)cc(C)c(C)c2c1
 : 4.5	2	4	1.0	x
(63) COC(=O)c1cccc(NC(=O)c2ccc(S(=O)(=O)N(C)c3ccccc3OC)cc2)c1
 : 1.4	-13	-17	-2.9	x
(64) CCc1cccc(CC)c1N1C(=O)COCC1=O
 : -0.9	19	11	0.3	x
(65) COc1cc(-n2c(C)nc3ncn(-c4ccccc4)c3c2=O)cc(OC)c1OC
 : -1.1	16	17	0.3	x
(66) Cc1ccc(NC(=O)Cn2sc3ccccc3c2=O)cc1
 : 0.3	-4	8	4.7	x
